Sa growth 42C: S. aureus growth inhibition at 42 and 30 °C, primary screen, LtaS inhibitor project, RN4220, two temperatures | OD600, 20 h, 42 °C; stronger effect = lower value | relative growth, % (test concentration not listed) | 170,000 tested, 0.53% active;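 active = growth at 42 °C up to 50% and 20 or more points under that at 30 °C, or under 10% at both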;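 also: 300 nL library stock went into each well; scaled to the means of positive and negative controls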
HCMV NEC inh: inhibitors of HCMV UL50-UL53 interaction, biochemical, HTRF; normalized percent inhibition; 190,000 tested, 0.15% active; inhibition, % (no concentration beside the values); AID 1918969, 2023;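 active = both replicates at 50% or more, plus weaker picks with an unusually low signal ratio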;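 also: stock transfer was 100 nL into about 20 µL; 0% = negative control wells and 100% = wells with untagged competitor protein; inactives centre near -12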
GIV-Gai inh: inhibitors of GIV peptide binding to Galpha-i3, primary screen, biochemical, fluorescence polarization, FITC-GIV GBA peptide, rat Galphai3; Guanine nucleotide-binding protein G(i) subunit alpha-3 (Rattus norvegicus), P08753; 90 min; stronger effect = lower value; scaled: aluminum fluoride 0%, vehicle 100%; percent of control (FP), % (no concentration beside the values); 210,000 tested, 0.42% active;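 active = replicate mean at 85% of control or lower, very high polarization wells dropped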;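 also: wells of about 15 µL received 100 nL stock; the first replicate is given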
Target sequence (P08753 whole entry, looked up): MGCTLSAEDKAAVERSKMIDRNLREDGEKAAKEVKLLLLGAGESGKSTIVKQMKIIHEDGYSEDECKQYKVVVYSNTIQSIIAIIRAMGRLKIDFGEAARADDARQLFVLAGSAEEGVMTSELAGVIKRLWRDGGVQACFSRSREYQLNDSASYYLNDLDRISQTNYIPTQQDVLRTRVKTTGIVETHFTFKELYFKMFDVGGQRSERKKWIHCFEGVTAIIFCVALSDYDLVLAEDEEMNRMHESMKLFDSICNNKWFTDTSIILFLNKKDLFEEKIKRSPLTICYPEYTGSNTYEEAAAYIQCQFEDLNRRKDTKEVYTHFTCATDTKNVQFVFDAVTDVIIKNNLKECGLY
Sa growth 42C second temp: second read-out of Sa growth 42C, no call of its own (marks repeat the call); relative growth, %; measured here: growth at 30 °C;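 optical density after 20 h as mean of two plates; 100% = untreated growth and lower means inhibition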
An asterisk follows results filed as active; nt = no result given; & = joins results of further samples. Rows are unselected. About 0.79% of those tested had a hit in this group.

SMILES	Sa growth 42C	Sa growth 42C second temp	HCMV NEC inh	GIV-Gai inh
O=c1c2ccccc2c(-c2nc(-c3ccccn3)no2)nn1-c1ccc(F)cc1	nt	nt	-30	110
COc1ccc(S(=O)(=O)Nc2cccc(N3CCCS3(=O)=O)c2)cc1OC	nt	nt	-8	101
OCCSc1nnc2sc3ccccc3n12	nt	nt	-16	109
Cc1nn(CC(=O)N(C(C)C)C(C)C)c(C)c1S(=O)(=O)NC(C)(C)C	97	97	2	nt
COc1cccc(NC(=O)Cn2cc(C(=O)c3ccc(F)cc3)c(=O)c3cc(OC)ccc32)c1	106	89	-14	97
Cc1c(Cl)c(C(F)(F)F)nn1CCCNC(=O)C1CCCC1	109	108	2	100
O=C(Nc1ccc(-c2cn3c(n2)SCC3)cc1)c1ccc2nonc2c1	93	84	-2	96
CC(=O)Nc1nc2c(c(-c3ccccc3)c1C#N)CCCCC2	88	82	-23	98
O=S(=O)(c1ccc(Br)cc1)N1CCCC1c1ccccc1F (stereo not given)	nt	nt	-28	96
COc1ccccc1-c1nnc(-c2cccc(Cl)c2)o1	nt	nt	6	100
O=C(NNc1ncnc2ccccc12)c1ccncc1	84	91	-34	nt
COC(=O)C1=C(C)NC2=C(C(=O)CCC2)C1c1ccc(C(=O)O)cc1 (stereo not given)	104	93	-1	109
O=C(Nc1ccc(Cl)cc1)OCN1C(=O)c2ccccc2C1=O	85	79	-7	95
O=C(c1ccc2c(c1)N(Cc1ccc(F)cc1)CCS2)N1CCOCC1	104	87	-2	103
CCOC(=O)c1c(NC(=O)c2cc(OCC)c(OCC)c(OCC)c2)sc2c1CCCCC2	96	95	5	103
COc1ccc(CNCc2ccc(N(C)C)cc2)cc1	112	91	-8	nt
CC1(C)CCc2cc(S(=O)(=O)NCc3ccc(S(N)(=O)=O)cc3)ccc2O1	88	85	-24	104
O=C(c1cn(-c2ccccc2)cn1)N1CCC(Cc2ccccc2)CC1	nt	nt	-34	105
CCn1nnc2cc(C(=O)Nc3ccc(C)cc3Br)ccc21	102	104	nt	115
CC1(C)CSC(=NC2CCCCC2)N1	106&96	92&83	7&-23	101
NC(=S)Nc1ccc(S(N)(=O)=O)cc1	75	87	2	nt
O=C(Cn1c(=O)oc2ccccc21)NCc1ccccc1	102	93	-3	nt
CCc1ccc(NC(=O)CC2C(=O)N(c3ccc(OC)cc3)C(=O)N2Cc2cccs2)cc1 (stereo not given)	123	84	nt	103
COc1cccc(C2Nc3ccccc3NC3=C2C(=O)CCC3)c1 (stereo not given)	87	88	-24	100
O=C(NCCCO)Nc1ccc(Cl)cc1	118	89	-5	99
COc1ccccc1N1CCN(C(=O)CCS(=O)(=O)c2cc(Br)cc3c2N(C(=O)C2CC2)CC3)CC1	116	85	-1	107
Cc1cccn2c(=O)c(/C=C3\SC(=S)N(CCc4ccccc4)C3=O)c(N3CCOCC3)nc12	nt	nt	-11	103
Cc1ccc(NC(=O)c2c3c(nc4ccccc24)C(=O)N(C2CCCCC2)C3)cc1F	75	89	nt	99
CCC(C)N(C)Cc1cccc(C2(O)CCN(S(=O)(=O)c3ccc(OC)c(OC)c3)CC2)c1 (stereo not given)	80	92	4	107
Nc1ccc(OCCN2CCCCC2)cc1	108	98	-12	104
COc1ccc(NC(=O)c2nnc(CSCC(=O)NCCc3c[nH]c4ccccc34)s2)cc1	nt	nt	-28	98
CN(C)c1ccc(CN(C(=O)c2cc(-c3ccc4c(c3)OCCO4)on2)C2CCS(=O)(=O)C2)cc1 (stereo not given)	nt	nt	-10	98
O=C(O)CSc1ccc(Br)c2cccc(Cl)c12	122	49	-53	nt
CN(Cc1nnc(-c2ccccc2)o1)C1CCCCC1	100	94	-13	99
CCOC(=O)c1cc2sccc2n1CC(=O)NC(C)C	100	87	-1	100
Cc1ccc(-n2c(=O)c3ccc(C(=O)NCc4ccco4)cc3n(Cc3cccc(C)c3)c2=O)cc1	100	94	nt	102
CN1C(C(=O)NCc2ccccc2)=CC(c2ccco2)=NS1(=O)=O	100	73	nt	112
COc1ccc(CNC(=O)Cn2ccc3cc(S(=O)(=O)N4CCCC4)ccc32)c(OC)c1	113	86	nt	110
O=C1CCCc2[nH]c(=O)c(C(=O)Nc3ccccc3F)cc21	nt	nt	-11	109
c1ccc2c(-c3nn4c(-c5ccncc5)nnc4s3)c[nH]c2c1	nt	nt	-3	110
C=CC[n+]1ccc2ccccc2c1	80	100	-72	nt
COc1ccc(-c2n[nH]c(=S)n2-c2ccccc2)cc1OC	97	90	-9	nt
O=C(Nc1ccccc1Cl)NC1(C(=O)N2CCCCC2)CCCCC1	106	85	-13	103
CN(C)CCN(Cc1ccccc1)S(=O)(=O)c1cccc2cccnc12	89	78	-12	100
CCOC(=O)c1[nH]c2ccccc2c1NC(=O)c1ccc(S(=O)(=O)N2CCCC2)cc1	98	64	nt	101
C=CCNc1cc(C)nc2ccc(C)cc12	89	73	-10	111
COc1ccccc1C(=S)N1CCCCC1	95	95	18	110
Cc1ccc(-n2ncc(C(=O)NCCN3CCc4ccccc4C3)c2C2CCN(C(=O)OC(C)(C)C)CC2)c(C)c1	80	85	nt	108
CCOc1ccc(NC(=O)CN(c2ccc(Cl)cc2C)S(=O)(=O)c2ccccc2)cc1	76	89	-4	104
O=C(NCC1CCCO1)c1c(NC(=O)c2nn(-c3ccc(Cl)cc3)ccc2=O)sc2c1CCC2 (stereo not given)	nt	nt	-12	105
CSc1nc2c(c(=O)[nH]1)C(c1cccc(F)c1F)CC(=O)N2 (stereo not given)	101	88	17	104
Cc1ccccc1CN(C)CC(=O)Nc1ccccc1F	106	104	2	nt
CSc1ncc(C(=O)Nc2nc(CN3CCCCC3)cs2)n1-c1ccc(F)cc1	102	96	1	nt
O=c1[nH]c2ccc(NS(=O)(=O)c3cc(F)ccc3F)cc2s1	nt	nt	2	99
O=C(O)/C=C/C(=O)Nc1ccc(Cl)cc1C(=O)c1ccccc1	89	83	-3	99
N#C/C(=C\Nc1ccccn1)C(=O)c1ccccc1	93	87	-30	109
O=C(CSc1n[nH]c(=O)n1Cc1ccccc1)c1ccc(S(=O)(=O)N2CCCC2)cc1	94	99	-19	nt
COC(=O)C1=CN(c2ccc(C)c(C)c2)c2cc(F)c(F)cc2S1(=O)=O	nt	nt	-16	97
O=C(CC1SC(=O)N(CN2CCOCC2)C1=O)NCc1ccccc1 (stereo not given)	nt	nt	-34	106
CCC1C(=O)N=C(SCC(=O)Nc2ccc(Br)cn2)NC1=O (stereo not given)	112	84	nt	102
Remaining list, next part:
SMILES	Sa growth 42C	Sa growth 42C second temp	HCMV NEC inh	GIV-Gai inh
CC(O)c1cc(NC(=O)c2ccccc2)c(=O)oc1/C=C/N(C)C (stereo not given)	122	64	-63	nt
COc1ccccc1C1CC(=O)Nc2c1ccc(C)c2C (stereo not given)	84	84	-28	109
O=C(O)CSc1ncnc2sccc12	58	90	-24	nt
Cc1cc(Nc2cccc(C(F)(F)F)c2)nc2ccc(NC(=O)CSc3ccncc3)cc12	109	93	nt	102
COc1ccc(C(=O)NCCn2cc(SCC(=O)Nc3ccc(F)cc3)c3ccccc32)cc1	104	76	-8	102
CCc1c(CN2CCN(c3cccc(C)c3)C(C)C2)csc1C (stereo not given)	81	101	nt	105
O=C(c1cccc(-c2noc(-c3ccccc3Br)n2)c1)N1CCCC1	nt	nt	8	96
O=C(C1CCCN(c2ccnc(-c3ccccc3)n2)C1)N1CCN(Cc2ccccc2)CC1 (stereo not given)	nt	nt	0	99
O=C(CSc1nc2c([nH]c3ccccc32)c(=O)n1-c1ccccc1)c1ccccc1	94	94	nt	105
COC(CNC(=O)c1cn(C)c2ccc(S(=O)(=O)N3CCCC3)cc2c1=O)OC	104	90	-12	106
COc1ccc(C(=O)Nc2cnc3ccccn3c2=O)cc1	107	88	nt	103
CC1CCCCC1NS(=O)(=O)c1ccc2c(c1)CC(=O)N2C (stereo not given)	101	80	-10	104
COC(=O)c1ccc([C@H]2C(C#N)=C(N)C(C#N)(C#N)C3=CCC(C(C)(C)C)C[C@@H]32)cc1 (stereo not given in full)	62	35	2	nt
COC(=O)Nc1ccc(N=Cc2cccs2)cc1	83	98	-11	nt
CCOc1ccc(CNC(=O)c2ccc3nc(C(C)C)oc3c2)cc1	93	89	nt	103
COc1ccc(CN2C(=O)c3cccnc3C2=O)cc1S(=O)(=O)N(CC(C)C)CC(C)C	93	96	-13	101
O=C(Nc1nc2ccccc2[nH]1)c1cccc(Oc2ccccc2)c1	59	48	0	nt
Cc1c(C#N)c2ccccc2n1CCOc1cccc2ccccc12	141	87	2	107
O=C(Oc1ccccc1)C1CCCN(C(=O)c2ccc(Cl)cc2)C1 (stereo not given)	106	92	-6	nt
CCN(CC)c1ccc(-c2nc(-c3ccc(Cl)cc3)no2)nn1	nt	nt	-16	99
O=C(c1cnn2c3c(cnc12)CCCCC3)N1CCCCC1	113	90	nt	96
O=C(CN1CCN(Cc2ccc(Cl)cc2)C1=O)NCc1ccccc1Cl	77	92	-13	103
CCNc1c(NS(=O)(=O)c2cccs2)c(=O)oc2ccccc12	114	90	-10	104
CC(CCc1ccccc1)NC(=O)Cn1ncc2c3ccccc3n(Cc3ccc(F)cc3)c2c1=O (stereo not given)	96	92	-7	107
COc1ccc(CNC(=O)CSc2nc3c(-c4ccccc4)csc3c(=O)n2C)cc1	nt	nt	-12	98
NNS(=O)(=O)c1ccc(Br)cc1	102	82	-33	nt
CC(=O)Nc1ccc(NC(=O)Cc2csc(NC(=O)Nc3ccccc3)n2)cc1	nt	nt	-12	104
CCc1ccc2oc(C(=O)NCC(c3ccc(OC)cc3)N3CCCCC3)c(C)c2c1 (stereo not given)	105	88	-20	98
CC(NC(=O)c1ccco1)C(=O)OCc1cccc(Cl)c1 (stereo not given)	88	97	-8	nt
CNC(=O)C1CCC(Cn2c(=O)c3sccc3n(Cc3cc(C)ccc3C)c2=O)CC1 (stereo not given)	75	86	nt	98
COc1ccccc1-n1cc[nH]c(=O)c1=O	nt	nt	-38	98
O=C(Oc1ccc2cc(-c3ccc(F)cc3)c(=O)oc2c1)c1ccco1	100	90	-16	108
O=c1[nH]nc(SCc2csc(-c3ccccc3)n2)n1Cc1ccco1	90	70	-30	98
Cc1ccc(C2=NC3(CCCCCC3)N(CC(=O)Nc3ccc(F)c(Cl)c3)C2=O)cc1	nt	nt	-24	103
CCOC(=O)c1ccc(NS(=O)(=O)c2c(C(=O)N3CCCC3)c(C)n(C)c2C)cc1	nt	nt	-19	103
O=C(OCCN1CCN(C2=NS(=O)(=O)c3ccccc32)CC1)c1cccc2ccccc12	nt	nt	-11	107
Cc1ccc(Cn2c(C(=O)Nc3cccc(Cl)c3)cc3sccc32)cc1	100	84	-12	105
O=C(Cn1c(=O)oc2ccccc21)N1CCN(c2ccccn2)CC1	nt	nt	0	107
CCOC(=O)CSc1nnc2n(-c3ccc(C)cc3)c(=O)c3c(n12)-c1ccccc1CC31CCCCC1	nt	nt	-9	106
Cc1cc2nc(CSc3nnc(NC(=O)Nc4ccccc4)s3)cc(=O)n2o1	nt	nt	-22	104
CCC(=O)Nc1ccc(C(=O)CSc2nc3ccccc3n2CCC#N)cc1	106	82	-9	nt
COc1ccc(-c2nc(CCNC(=O)c3ccccc3)cs2)cc1OC	88	93	nt	108
Cc1ccc(C2CC(C(F)(F)F)n3nc(C(=O)N4CCN(C(=O)c5ccccc5)CC4)c(Cl)c3N2)cc1 (stereo not given)	nt	nt	-16	96
CCN(Cc1ccccc1)c1ccc(NS(=O)(=O)c2ccc(OC)cc2)cc1C(=O)O	nt	nt	6	106
CC1CCCN(CCCNC(=O)Cn2ncc3c([nH]c4ccccc43)c2=O)C1 (stereo not given)	138	84	nt	108
O=C1NC(=S)S/C1=C\c1ccccc1OCC(=O)N1CCCC1	79	83	-67	nt
CN(C)c1ccc2nc3c(nc2c1)C(=O)c1ccccc1C3=O	21	18	nt	104
CCOc1cc(-c2cccc(Cl)c2)nc2ccc(C(=O)Nc3ccccc3O)cc12	nt	nt	5	114

Screening results as filed in PubChem.
